Source: PubChem (National Center for Advancing Translational Sciences (NCATS))
GLA inh pH 4.5 = blocks human alpha-galactosidase A at pH 4.5; 230,000 tested, under 10 active; AID 1467; P06280; purified enzyme, 4-MU-alpha-Gal fluorescence, pH 4.5; activity change, negative = inhibition, % at 105 µM; inconclusive = small, poorly fitted or top-dose-only inhibition, or a rising curve; inactive = flat fitted curve, though single readings scatter; no compound was filed as active;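 note: 0% = full activity with enzyme and -100% = basal without enzyme; dose as in the result columns while the protocol names 77 µM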
Target sequence (P06280 whole entry, looked up): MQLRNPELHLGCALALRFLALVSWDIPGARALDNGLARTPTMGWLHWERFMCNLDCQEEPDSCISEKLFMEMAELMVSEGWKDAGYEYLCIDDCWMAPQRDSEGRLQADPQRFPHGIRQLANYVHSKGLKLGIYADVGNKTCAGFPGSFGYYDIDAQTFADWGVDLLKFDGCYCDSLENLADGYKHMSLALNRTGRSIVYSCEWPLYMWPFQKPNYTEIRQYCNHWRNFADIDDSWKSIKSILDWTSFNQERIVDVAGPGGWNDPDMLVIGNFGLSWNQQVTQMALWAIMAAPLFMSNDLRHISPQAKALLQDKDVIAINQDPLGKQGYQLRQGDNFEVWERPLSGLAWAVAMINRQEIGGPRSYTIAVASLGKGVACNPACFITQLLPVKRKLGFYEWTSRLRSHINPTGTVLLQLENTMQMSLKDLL
Rango-impB inh = prevents formation of the Rango-importin beta complex; Q14974; Rango CFP/YFP FRET sensor + importin beta, 45 min; Potency, µM (titrated, usually from 92.2 µM), inactives show at the top dose inhibition of complex formation; 340,000 compounds, 0.031% hits; AID 540263; active = rising FRET ratio curve, often small or poorly fitted; inconclusive = mostly compound fluorescence or quenching in the first reads; inactive = flat curves in all reads;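 note: potency is the fitted concentration of half-maximal effect; 0% = DMSO wells and 100% = buffer wells lacking importin beta; nearly all actives have a fitted effect of over 15% in size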
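Inhibition scored from the CFP 486 nm/YFP 530 nm FRET ratio 45 min after adding 0.125 microM importin beta to 50 nM Rango biosensor preincubated 5 min with compound (room temperature, PBS with DTT, Tween-20, BSA). No-importin wells as positive control.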
miR-21 reporter = miR-21 reporter, rising signal. HeLa miR-21 FLuc reporter, luciferase, 48 h. Potency, µM (top dose mostly 38.3 µM), without a hit: at the top dose reporter change, positive = more light. 340,000 tested, under 10 active; active = well fitted rising curve with a large enough effect; inconclusive = small, poorly fitted or top-dose-only effect; inactive = no such curve, though single readings can be large or run the other way;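 note: % of control where 0% means no effect; miR-21 action dims this reporter so a rising signal means less miR-21 action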
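HeLa miR-21-FLuc reporter line, endogenous miR-21; 2000 cells/well in DMEM/10% FBS; compound titration up to ~40uM final, 48 h, 37 degree Celsius; luciferase detection reagent, 15 min lysis, CCD luminescence.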
Rango release inh = prevents RanGTP from dissociating the Rango-importin beta complex; Biochemical FRET Rango-importin beta, RanGTP-induced dissociation; Potency, µM (top dose mostly 46.1 µM), for the others: at the highest dose activity change, negative = inhibition; 340,000 compounds, 0.071% hits; active means falling FRET ratio curve, often poorly fitted, with flat reads before Ran was added; inconclusive means other falling curves, or compound fluorescence or quenching; inactive means flat or rising ratio curve;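 note: potency is the fitted concentration of half-maximal effect; % of control where 0% means no effect; nearly all actives have a fitted effect of over 45% in size; -100% = wells without RanGTP and RCC1; the record marks most hits as doubtful in a second field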
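Quantitative HTS using a FRET biosensor: 0.1 uM Rango, 0.25 uM importin beta, 0.6 uM Ran, 2 mM GTP, 0.2 uM RCC1 final, PBS with DTT, Tween-20 and BSA. Post-read taken 45 min after Ran addition.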
An asterisk follows results filed as active; [ ] = dose if it differs, or a comment. Some of the compounds tested; rates above refer to the full screens.

`CN(C(=O)COC(=O)c1cccc(F)c1)c1ccccc1` gave Rango-impB inh -2.0%, miR-21 reporter -10% and Rango release inh 0%.
`Cc1c(F)cccc1NC(=O)c1ccc2c(c1)CCN2S(C)(=O)=O` gave Rango-impB inh 3.4%, miR-21 reporter -17% and Rango release inh 9%.
For CCCNC(=O)Cn1nc(C(F)(F)F)c2c1CCCC2 the results were GLA inh pH 4.5 0, Rango-impB inh 1.1%, miR-21 reporter -6% and Rango release inh 26%.
Cc1nc2c(sc3nc(N4CCOCC4)c4c(c32)CC(C)(C)OC4)c(-c2ccccc2)c1C(=O)O was read as GLA inh pH 4.5 -7, Rango-impB inh inconclusive, miR-21 reporter -3% and Rango release inh inconclusive.
COCCSc1nnc(NC(=O)c2ccc(NC(C)=O)cc2)s1 was read as GLA inh pH 4.5 5, Rango-impB inh -4.5%, miR-21 reporter -6% and Rango release inh 8%.
Screening COc1ccc(NC(=O)COC(=O)CCC2CCCC2)c(OC)c1 returned Rango-impB inh 2.5% and Rango release inh 1%.
Cc1cc(OCc2cc(C(=O)N(C)C(C)c3ccccn3)no2)cc(C)c1Cl (centres undefined) was read as Rango-impB inh -3.8%, miR-21 reporter -52% and Rango release inh -12%.
Screening CNc1snc(C)c1C(=O)OC(C)C(=O)Nc1ccccc1 (centres undefined) returned Rango-impB inh 0.1% and Rango release inh -9%.
O=C(NCc1ccccc1)c1cc(S(=O)(=O)N2CCOCC2)ccc1F was read as GLA inh pH 4.5 -4, Rango-impB inh 1.6%, miR-21 reporter -5% and Rango release inh -8%.
Screening O=C1c2cccc3cccc(c23)C(=O)N1c1ccncc1 returned GLA inh pH 4.5 -14, Rango-impB inh 6.4%, miR-21 reporter -7% and Rango release inh 1%.
`COc1ccc(NC(=O)CCNS(=O)(=O)c2cccc3nsnc23)c(OC)c1` gave Rango-impB inh 0.0%, miR-21 reporter -1% and Rango release inh -11%.
For Cc1cccc(C=NOCCc2ccccc2)n1 the results were Rango-impB inh 1.6% and Rango release inh -10%.
Screening Cc1cccn2c(=O)c(C=O)c(Nc3ccccc3)nc12 returned Rango-impB inh 0.5%, miR-21 reporter 2% and Rango release inh 3%.
Screening O=C(NCc1cccnc1)Nc1ccccc1 returned GLA inh pH 4.5 -2, Rango-impB inh 1.3%, miR-21 reporter 1% and Rango release inh 16%.
Screening Cc1ccc(C(=O)N2c3ccccc3OCC2C)cc1 (centres undefined) returned Rango-impB inh -0.8%, miR-21 reporter -4% and Rango release inh -11%.
For Cc1ccc(C(=O)Nc2ncccc2O)o1 the results were Rango-impB inh -1.9% and Rango release inh -4%.
Screening COc1cc(CNn2cn[nH]c2=S)ccc1OCC(=O)NC(C)(C)C returned Rango-impB inh 1.0%, miR-21 reporter -4% and Rango release inh 17%.
Screening CC(=O)C1=C(O)C(=O)N(C)C1c1ccccc1[N+](=O)[O-] (centres undefined) returned GLA inh pH 4.5 -3, Rango-impB inh 0.7%, miR-21 reporter -8% and Rango release inh -10%.
For C/C(=N\NC(=O)c1ccc(Cl)cc1)c1ccccn1 the results were Rango-impB inh 2.0%, miR-21 reporter -14% and Rango release inh -7%.
`Cc1ncoc1C(=O)Nc1ccccc1-c1ccccc1` gave GLA inh pH 4.5 0, Rango-impB inh -2.4%, miR-21 reporter -8% and Rango release inh -10%.
`O=C(N/N=C/c1ccccc1[N+](=O)[O-])c1ccc2c(c1)OCCO2` gave GLA inh pH 4.5 0, Rango-impB inh -5.8%, miR-21 reporter -16% and Rango release inh 1%.
For O=C(C[n+]1ccc(C(=O)c2ccccc2)cc1)Nc1ccc(C(F)(F)F)cc1 the results were GLA inh pH 4.5 -1, Rango-impB inh 2.8%, miR-21 reporter 10% and Rango release inh 1%.
Screening Cc1ccc(S(=O)(=O)c2ccc(Cl)cc2)cc1S(=O)(=O)N1CCOCC1 returned GLA inh pH 4.5 -5, Rango-impB inh 2.6%, miR-21 reporter 0% and Rango release inh -7%.
Screening CN(C)c1ccc(N/C(=N\S(=O)(=O)c2cccs2)c2ccccc2)cc1 returned GLA inh pH 4.5 9, Rango-impB inh 1.4%, miR-21 reporter -25% and Rango release inh -14%.
`O=C(C[N+]1(CC#Cc2ccccc2)CCOCC1)c1ccccc1` gave GLA inh pH 4.5 2, Rango-impB inh inconclusive, miR-21 reporter 2% and Rango release inh -13%.
`CC(=O)c1sc(NC(=O)c2ccc(F)c(F)c2)nc1C` gave GLA inh pH 4.5 5, Rango-impB inh -0.1%, miR-21 reporter -17% and Rango release inh -12%.
For O=C(NCC1CCCO1)c1onc(CSc2cccc3ccccc23)c1C(=O)O (centres undefined) the results were GLA inh pH 4.5 3, Rango-impB inh 0.1%, miR-21 reporter -3% and Rango release inh 4%.
O=C(C1=C[C@@H](c2csc3ccccc23)C[C@@H](OCc2ccc(CO)cc2)O1)N1CCN(Cc2ccc3c(c2)OCO3)CC1 was read as GLA inh pH 4.5 -9, Rango-impB inh -2.5%, miR-21 reporter inconclusive and Rango release inh -17%.
Screening Cc1cccc(N(CC(=O)NCCSCc2ccccc2)S(C)(=O)=O)c1 returned GLA inh pH 4.5 -27, Rango-impB inh 0.3%, miR-21 reporter -1% and Rango release inh 0%.
Screening CC1(C)CC(=O)C=C(N2CCOCC2)C1 returned GLA inh pH 4.5 3[21.1 µM], Rango-impB inh -0.1%, miR-21 reporter 5% and Rango release inh 34%.
For CCOc1cc(/C=N/Nc2ncnc(Cl)c2N)ccc1O the results were GLA inh pH 4.5 -1, Rango-impB inh 0.0%, miR-21 reporter -54% and Rango release inh -7%.
For CSCCC1NC(=O)C(C(C)=Nc2ccccc2)=C1O (centres undefined) the results were Rango-impB inh -0.8% and Rango release inh -11%.
`COc1ccc(CN2CCC(CNC(=O)NC3CCCCC3)CC2)cc1` gave GLA inh pH 4.5 9, Rango-impB inh -1.2%, miR-21 reporter -4% and Rango release inh 7%.
Screening Nc1cc([N+](=O)[O-])ccc1OCc1ccccc1 returned Rango-impB inh -0.4% and Rango release inh 41%.
Cc1ccc(C2=Nc3ccccc3SC(c3cccc([N+](=O)[O-])c3)C2)cc1 (centres undefined) was read as GLA inh pH 4.5 -5, Rango-impB inh 4.5%, miR-21 reporter -27% and Rango release inh -5%.
`O=C(Nc1ccccc1)c1ccncc1` gave GLA inh pH 4.5 2, Rango-impB inh 0.1%, miR-21 reporter -1% and Rango release inh -13%.
O=C(Nc1ccc2c(c1)OCO2)c1cccc2c1C(=O)N(Cc1cccnc1)C2 was read as GLA inh pH 4.5 -5, Rango-impB inh -1.0%, miR-21 reporter -27% and Rango release inh 22%.
`O=C(NCC1CCCCC1)c1cccnc1` gave Rango-impB inh -0.7%, miR-21 reporter -8% and Rango release inh 4%.
`Cc1cc2cc3c(cc2nc1SCC(=O)O)CCC3` gave GLA inh pH 4.5 3, Rango-impB inh -1.2%, miR-21 reporter -3% and Rango release inh 3%.
Screening CC(=O)Nc1ccc(NC(=O)c2ccnn2C)cc1 returned Rango-impB inh 0.2% and Rango release inh 8%.

Next part, starting with the last two of the part before.
`Cc1cc2cc3c(cc2nc1SCC(=O)O)CCC3` gave GLA inh pH 4.5 3, Rango-impB inh -1.2%, miR-21 reporter -3% and Rango release inh 3%.
Screening CC(=O)Nc1ccc(NC(=O)c2ccnn2C)cc1 returned Rango-impB inh 0.2% and Rango release inh 8%.
`COc1ccc2nc(N3C(=O)CC(Cc4ccc(C)cc4)C3=O)sc2c1` (centres undefined) gave GLA inh pH 4.5 -9, Rango-impB inh 4.0%, miR-21 reporter -5% and Rango release inh -11%.
Screening COc1ccc(NC(=O)C2CCN(S(C)(=O)=O)CC2)cc1Cl returned GLA inh pH 4.5 1, Rango-impB inh 0.6%, miR-21 reporter -3% and Rango release inh -7%.
`O=C(CN1C(=O)c2ccccc2C1=O)N1CCN(C2c3ccccc3-c3ccccc32)CC1` gave GLA inh pH 4.5 -4, Rango-impB inh -1.0%, miR-21 reporter -12% and Rango release inh -2%.
Cc1ccc(N=Cc2sc(O)c3ccccc23)cc1 was read as GLA inh pH 4.5 -7, Rango-impB inh inconclusive, miR-21 reporter -46% and Rango release inh inconclusive.
`COc1ccc(NC(=O)CC2SC(N3CCCC3)=NC2=O)cc1Cl` (centres undefined) gave Rango-impB inh -1.1% and Rango release inh 6%.
COc1ccc(S(=O)(=O)N2CCN(CC(O)COc3ccc(CC#N)cc3)CC2)cc1OC (centres undefined) was read as Rango-impB inh 1.7%, miR-21 reporter -4% and Rango release inh 1%.
`O=C(Nc1ccccc1)N1CCN(Cc2ccc(Cl)cc2)CC1` gave GLA inh pH 4.5 -3, Rango-impB inh 1.0%, miR-21 reporter -2% and Rango release inh -12%.
Screening Cc1cn(C2CCCCC2)c(=O)[nH]c1=O returned Rango-impB inh -2.0% and Rango release inh -9%.
OCC[C@@H]1C[C@H](O)[C@@H](O)[C@@]2(Cc3ccccc3CCO2)O1 was read as Rango-impB inh -2.1%, miR-21 reporter 4% and Rango release inh 0%.
Screening CCOc1ccc(C(=O)Oc2ccc(NC(C)=O)cc2)cc1 returned GLA inh pH 4.5 1 and miR-21 reporter -2%.
Screening O=C(CSc1nnc(-c2ccncc2)n1-c1ccccc1)N1CCN(c2ccc(Cl)cc2)CC1 returned GLA inh pH 4.5 -2, Rango-impB inh -1.3%, miR-21 reporter -3% and Rango release inh 5%.
Screening CCOc1ccc(NC(=O)CSc2nc3ccccc3c(=O)n2CCNC(C)=O)cc1 returned GLA inh pH 4.5 -7, Rango-impB inh -5.4%, miR-21 reporter -2% and Rango release inh -13%.
Screening Cc1ccccc1NC1=NCC(c2ccc([N+](=O)[O-])cc2)S1 (centres undefined) returned GLA inh pH 4.5 4[21.1 µM], Rango-impB inh -1.7%, miR-21 reporter 13% and Rango release inh -9%.
`Cc1ccc(C(=O)Nc2ccc([N+](=O)[O-])cn2)o1` gave GLA inh pH 4.5 -5, Rango-impB inh -3.1%, miR-21 reporter -47% and Rango release inh 2%.
COc1cc(OC)c(/C=C2\SC(=O)N(CC(=O)Nc3ccccc3F)C2=O)c(OC)c1 was read as Rango-impB inh inconclusive, miR-21 reporter -2% and Rango release inh inconclusive.
Screening Cc1cc2cc(CNS(=O)(=O)N(C)C)ccc2[nH]1 returned GLA inh pH 4.5 1, Rango-impB inh inconclusive, miR-21 reporter -4% and Rango release inh 1%.
O=C(CN(C(=O)c1csnn1)c1cccc(Cl)c1)NC1CCCC1 was read as Rango-impB inh -3.6%, miR-21 reporter -1% and Rango release inh -11%.
`CCOC(=O)c1c(NC(=O)Nc2ccc(C)cc2)sc2c1CCN(C)C2` gave GLA inh pH 4.5 -3, Rango-impB inh inconclusive, miR-21 reporter -17% and Rango release inh -25%.
For CCN(CC(=O)Nc1ccc([N+](=O)[O-])cc1OC)CC(=O)NC(C)(C)C the results were GLA inh pH 4.5 9, Rango-impB inh -0.1%, miR-21 reporter -1% and Rango release inh 10%.
`COC(=O)c1ccc(CNC(=O)COC(=O)c2ccccc2-c2ccccc2)cc1` gave Rango-impB inh 3.7% and Rango release inh 18%.
For CCCCN(C(=O)CSc1nc2ccccc2n1CC)C1CCS(=O)(=O)C1 (centres undefined) the results were Rango-impB inh -0.9% and Rango release inh 4%.
Screening CCOC(=O)c1c(NC(=O)COc2ccccc2C#N)sc2c1CC(C)(C)NC2(C)C returned Rango-impB inh 0.3%, miR-21 reporter 12% and Rango release inh 4%.
Screening CCOC(=O)c1c(NC(=O)C2=C(C)NC(=S)NC2c2ccc(F)cc2)sc(C)c1C (centres undefined) returned GLA inh pH 4.5 -5, Rango-impB inh inconclusive, miR-21 reporter 23% and Rango release inh -24%.
For O=C1CN(c2cc(Cl)cc(Cl)c2)C(=O)CN1/N=C/c1cccnc1 the results were GLA inh pH 4.5 1, Rango-impB inh 0.2%, miR-21 reporter -1% and Rango release inh -8%.

An excerpt from above in order of length of the SMILES, descending.
For CCN(CC(=O)Nc1ccc([N+](=O)[O-])cc1OC)CC(=O)NC(C)(C)C the results were GLA inh pH 4.5 9, Rango-impB inh -0.1%, miR-21 reporter -1% and Rango release inh 10%.
`COC(=O)c1ccc(CNC(=O)COC(=O)c2ccccc2-c2ccccc2)cc1` gave Rango-impB inh 3.7% and Rango release inh 18%.
For CCCCN(C(=O)CSc1nc2ccccc2n1CC)C1CCS(=O)(=O)C1 (centres undefined) the results were Rango-impB inh -0.9% and Rango release inh 4%.
